Bioassay records: PubChem BioAssay, several laboratories
P. falciparum M1AAP – P. falciparum M1AAP inhibitors, biochemical, fluorogenic H-Leu-NHMec substrate, 1536-well (AID 1445). recombinant M1AAP, H-Leu-NHMec fluorogenic kinetic assay; higher % means a stronger effect. inhibition, % at 30 µM, or IC50 in µM where a hit was titrated. actives 0.42% (n = 220,000);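 active = primary inhibition above the hit cutoff, then over 50% inhibition at one or more dose response concentrations, cut at about 23% in these data, passing the limit was not always enough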;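 note: plate controls were DMSO full reaction for no effect and no enzyme background for full effect; strong numbers were not always called active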
M17LAP inhibition – P. falciparum M17LAP inhibitors, primary screen, biochemical, fluorogenic H-Leu-NHMec substrate, 1536-well (AID 1619); recombinant M17LAP, H-Leu-NHMec fluorogenic kinetic assay; higher % means a stronger effect; one-dose inhibition, % at 30 µM; IC50 in µM for titrated hits; actives 0.38% (n = 220,000);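 active = compound inhibiting the enzyme by more than half at any dose during confirmatory dose-response retesting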;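 note: plate controls were full reaction with DMSO carrier for no effect and no enzyme background for full effect; strong numbers were not always called active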
XIAP antagonists – small molecules displacing peptide from XIAP – biochemical, IAP family, fluorescence polarization (AID 1018). actives 0.007% (n = 200,000). XIAP BIR domain, fluorescence polarization peptide displacement; higher % means a stronger effect. displacement, % at 20 µM, or IC50 in µM where a hit was titrated; in the data active = displacement above about 50%; note: a part of the inactive calls stands beside numbers as strong as those of hits
human PMI inhibition – MPI enzyme activity inhibition – biochemical, fluorescence intensity, coupled assay, primary screen (AID 1209) | purified PMI enzyme, coupled fluorescence intensity; higher % means a stronger effect | actives 0.42% (n = 190,000) | one-dose inhibition, % at 20 µM; IC50 in µM for titrated hits;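 note: plate controls were DMSO vehicle for no effect and wells lacking substrate for full effect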
human PMI inhibitors – MPI inhibition at elevated mannose 6-phosphate – biochemical, fluorescence intensity, high mannose 6-phosphate, primary screen (AID 1220) | recombinant PMI enzyme, coupled fluorescence intensity; higher % means a stronger effect | inhibition, % at 20 µM; hits with a dose series show IC50 in µM | actives 0.66% (n = 190,000)
An asterisk follows results filed as active; · = no result given. Cut-off read from the data, not from the text of the source, unless noted: active = inhibition above about 50%; inactive = the rest.

nr | mol | P. falciparum M1AAP | M17LAP inhibition | XIAP antagonists
1 | CC(C)OC(=O)C(C)(C)Oc1ccc(C(=O)c2ccc(Cl)cc2)cc1 | 0% | 10% | -1.8%
2 | CC1CC(C)(C)NCCNC(C)CC(C)(C)NCCN1 (stereo unspecified) | 8% | 1% | -5.3%
3 | CCN1/C(=C/C=C/c2oc3ccc(-c4ccccc4)cc3[n+]2CC)Oc2ccc(-c3ccccc3)cc21 | 17% | 17% | 73%
4 | CCOc1cc(/C=C2/NC(=O)NC2=O)cc(Br)c1OCc1ccc(C(=O)O)cc1 | 15% | 1% | -6.8%
5 | Cn1c(=O)c2[nH]cnc2n(C)c1=O | 16% | -15% | -4.1%
6 | Cc1nc2ccccc2c(-c2ccccc2)c1CC(=O)O | -1% | 8% | -5.2%
7 | O=C(Nc1ncn[nH]1)c1ccc(Cl)c(S(=O)(=O)Nc2ccc(Cl)cc2)c1 | -12% | 34% | -9.2%
8 | COc1cc(/C=C/C(=O)CC(=O)/C=C/c2ccc(O)c(OC)c2)ccc1O | 7% | 9% | -4.4%
9 | CN1Cc2c(N)cccc2C(c2ccccc2)C1 (stereo unspecified) | -3% | 6% | -6.7%
10 | COc1ccc(OC)c(S(=O)(=O)Nc2cnc3ccccc3c2)c1 | -4% | 11% | -3.6%

nr | human PMI inhibition | human PMI inhibitors
1 | 11% | 9%
2 | -1% | 0%
3 | -10% | -31%
4 | -4% | 8%
5 | -10% | -10%
6 | -23% | -25%
7 | -63% | -105%
8 | 5% | 20%
9 | -12% | 16%
10 | 9% | 2%

By substructure, the entries above with a halogen.
nr | mol | P. falciparum M1AAP | M17LAP inhibition | XIAP antagonists
1 | CC(C)OC(=O)C(C)(C)Oc1ccc(C(=O)c2ccc(Cl)cc2)cc1 | 0% | 10% | -1.8%
4 | CCOc1cc(/C=C2/NC(=O)NC2=O)cc(Br)c1OCc1ccc(C(=O)O)cc1 | 15% | 1% | -6.8%
7 | O=C(Nc1ncn[nH]1)c1ccc(Cl)c(S(=O)(=O)Nc2ccc(Cl)cc2)c1 | -12% | 34% | -9.2%

nr | human PMI inhibition | human PMI inhibitors
1 | 11% | 9%
4 | -4% | 8%
7 | -63% | -105%

Other records:
nr | mol | P. falciparum M1AAP | M17LAP inhibition | XIAP antagonists
11 | O=C(CCc1ccccc1)Nc1ncn[nH]1 | 1% | 0% | -2.8%
12 | O=C(O)CCc1cc(I)c(Oc2ccc(O)c(I)c2)c(I)c1 | 16% | -2% | ·
13 | O=C(O)[C@@H]1CCCC[C@@H]1C(=O)N1CCc2ccccc2C1CN1C(=O)c2ccccc2C1=O (stereo partly specified) | 20% | 15% | -7.4%
14 | CN(C)C(=O)CSc1nc2ccc(N3C(=O)c4ccccc4C3=O)cc2s1 | 6% | -2% | ·

nr | human PMI inhibition | human PMI inhibitors
11 | -16% | -8%
12 | · | ·
13 | -15% | -4%
14 | · | ·

Compounds from the list above with a COOH group (four):
nr | mol | P. falciparum M1AAP | M17LAP inhibition | XIAP antagonists
4 | CCOc1cc(/C=C2/NC(=O)NC2=O)cc(Br)c1OCc1ccc(C(=O)O)cc1 | 15% | 1% | -6.8%
6 | Cc1nc2ccccc2c(-c2ccccc2)c1CC(=O)O | -1% | 8% | -5.2%
12 | O=C(O)CCc1cc(I)c(Oc2ccc(O)c(I)c2)c(I)c1 | 16% | -2% | ·
13 | O=C(O)[C@@H]1CCCC[C@@H]1C(=O)N1CCc2ccccc2C1CN1C(=O)c2ccccc2C1=O (stereo partly specified) | 20% | 15% | -7.4%

nr | human PMI inhibition | human PMI inhibitors
4 | -4% | 8%
6 | -23% | -25%
12 | · | ·
13 | -15% | -4%

The list is partial (hit frequency here may not be typical).
